Screens from PubChem BioAssay.
NPR1 antag: antagonists of human natriuretic peptide receptor Npr1; HEK293 hNpr1 GloSensor cGMP, ANP-stimulated luminescence; Potency, µM (series often up to 46.3 µM), inactives show top-dose activity change, negative = inhibition, usual class: inhibitors; 76,000 compounds, 1.6% hits; active = well fitted inhibition curve with a large enough effect; inconclusive = small, poorly fitted or top-dose-only effect; inactive = no such curve, though single readings can be large or run the other way;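 further: nearly all actives have a fitted effect of over 60% in size; nearly all hits also lower the signal before the agonist is added; a reference antagonist and vehicle were the controls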
Target sequence (P16066 whole entry, looked up): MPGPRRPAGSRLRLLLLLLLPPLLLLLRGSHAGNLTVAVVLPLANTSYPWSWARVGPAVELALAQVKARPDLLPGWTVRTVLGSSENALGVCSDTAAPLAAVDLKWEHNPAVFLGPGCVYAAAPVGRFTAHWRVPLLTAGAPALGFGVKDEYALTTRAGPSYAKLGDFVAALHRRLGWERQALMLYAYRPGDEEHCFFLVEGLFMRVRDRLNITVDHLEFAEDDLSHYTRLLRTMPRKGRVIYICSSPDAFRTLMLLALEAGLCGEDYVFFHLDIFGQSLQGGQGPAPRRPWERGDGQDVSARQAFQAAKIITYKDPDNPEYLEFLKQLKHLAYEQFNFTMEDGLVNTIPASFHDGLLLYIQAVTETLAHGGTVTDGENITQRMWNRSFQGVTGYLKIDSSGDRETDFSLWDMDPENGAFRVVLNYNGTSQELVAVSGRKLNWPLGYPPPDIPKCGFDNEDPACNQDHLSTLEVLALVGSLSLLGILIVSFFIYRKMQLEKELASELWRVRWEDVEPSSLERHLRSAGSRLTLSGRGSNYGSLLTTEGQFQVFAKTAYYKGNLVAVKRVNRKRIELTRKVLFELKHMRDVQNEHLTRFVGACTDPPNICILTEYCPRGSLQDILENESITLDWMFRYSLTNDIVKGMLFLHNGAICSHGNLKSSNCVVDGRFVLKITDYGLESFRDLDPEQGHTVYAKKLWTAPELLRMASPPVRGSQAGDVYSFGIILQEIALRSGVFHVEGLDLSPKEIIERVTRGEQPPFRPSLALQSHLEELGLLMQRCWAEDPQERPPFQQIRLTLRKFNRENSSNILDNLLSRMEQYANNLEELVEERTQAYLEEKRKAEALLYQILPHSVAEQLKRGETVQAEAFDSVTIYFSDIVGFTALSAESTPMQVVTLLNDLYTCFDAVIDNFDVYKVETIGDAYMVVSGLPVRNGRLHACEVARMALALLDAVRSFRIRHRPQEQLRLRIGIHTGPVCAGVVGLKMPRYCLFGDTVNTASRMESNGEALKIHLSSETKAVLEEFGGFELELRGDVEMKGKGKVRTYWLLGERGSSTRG
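HEK293 cells stably expressing human Npr1 and cGMP GloSensor pGS-40F, loaded 2 h with 2% GloSensor reagent, given compound 30 min at room temperature. Luminescence read before and 20 min after 0.1 nM hNppA.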
* marks the source's active call; other numbers are inactive results; u = inconclusive; [ ] = remark or other dose. On the % scale 0 is the no-effect control and ±100 the full control effect; potency means the concentration at half of the fitted maximal effect. This is a subset; rates above refer to the full screens.

NPR1 antag,SMILES
-1.6%,CCCC(=O)N1CCCC(c2noc(COc3ccccc3F)n2)C1 (stereo not drawn)
-8.2%[70.6 µM],COc1ccccc1-c1[nH]nc2ncc(CNc3ccccn3)nc12
-0.3%,COc1cccc(CNC(=O)[C@@H]2C[C@@H](O)CN2C2CCN(C(=O)CCc3ccccc3)CC2)c1
1.1%,COc1ccc(CCC(=O)N2CC(F)(F)C[C@H]2c2nnc(C)o2)cc1
8.0%,O=C(CC1CCOC2(CCN(S(=O)(=O)Cc3ccccc3F)CC2)C1)NC1CC1 (stereo not drawn)
-1.4%,O=C1CCN(S(=O)(=O)c2cccc(F)c2)CCCC(c2nc(-c3ccccc3)no2)CCN1 (stereo not drawn)
1.8%,O=C(NC(C(=O)N1CCCCC1)C1CCN(C(=O)c2ccccc2)CC1)c1ccccc1Cl (stereo not drawn)
2.0%[70.6 µM],COc1ccc(CN2CCC(N3CC4CCCN4C3=O)CC2)cc1 (stereo not drawn)
3.0%,Cc1ccc(-c2nnc(C3CN(C(=O)c4cc(F)ccc4F)CC34CCOCC4)o2)cc1 (stereo not drawn)
7.6%,O=C1N(C2CCNCC2)C(c2ccncc2)C12CCCCC2 (stereo not drawn)
2.2%,Cn1ccnc1-c1cn(CCNC(=O)c2ccc(F)cc2)nn1
-4.8%,CCC1Oc2ccc(NC(=O)c3ccccc3F)cc2CN(Cc2ccc3c(c2)OCO3)C1=O (stereo not drawn)
0.2%,Cc1ccccc1N1Cc2c(NCCc3ccc(F)cc3)ncnc2N(C)CC1=O
1.3%,CN(C)Cc1cn(C[C@H]2C[C@@H](NC(=O)Nc3cccnc3)[C@H](O)[C@@H]2O)nn1
-2.8%,COc1ccccc1CC(=O)NCc1nnc2c(-c3nc(C(C)C)no3)cccn12
3.9%,CCN(CC)C(=O)c1ccc(CN2C(=O)NC3(CCS(=O)(=O)CC3)C2=O)cc1
-3.8%,CCOc1cccc(-c2nnc(CCC(=O)NCCC(C)C)c(=O)[nH]2)c1
-14.3%,CCC1(C(=O)N2CCc3ccccc3C2)CCCCC(=O)N1 (stereo not drawn)
4.4%,Cc1cnc(C(=O)N2CC(c3nc(CCOCC4CC4)no3)C2)cn1
-2.1%,O=C(c1ccc[n+]([O-])c1)N1CCOC(CC(c2ccccc2)c2ccccc2)C1 (stereo not drawn)

Of the compounds above, 2 have an NH in an aromatic ring:
NPR1 antag,SMILES
-8.2%[70.6 µM],COc1ccccc1-c1[nH]nc2ncc(CNc3ccccn3)nc12
-3.8%,CCOc1cccc(-c2nnc(CCC(=O)NCCC(C)C)c(=O)[nH]2)c1

Rewritten as comma-separated lines: entries from further up.
SMILES,NPR1 antag
CCOc1cccc(-c2nnc(CCC(=O)NCCC(C)C)c(=O)[nH]2)c1,-3.8%
CCC1(C(=O)N2CCc3ccccc3C2)CCCCC(=O)N1 (stereo not drawn),-14.3%

Next entries
NPR1 antag,SMILES
u,O=c1c2c(CO)c(-c3ccc(F)cc3)nn2ccn1Cc1ccccc1Cl
5.8%,CN(C)C[C@@H]1CN(C2CCOCC2)C[C@H]1NC(=O)c1cnco1
7.8%,COc1ccc(N2CC(C(=O)N3CCC(C(=O)N4CCC(C#N)CC4)C3)NC2=O)cc1 (stereo not drawn)
-16.7%,O=C(NCCN1CCCC1)c1ccc(-c2ccc(N3CCSCC3)nc2)cc1
-14.0%,COc1cc(NC(=O)C2CCc3ncc(-c4ccsc4)n3C2)cc(OC)c1 (stereo not drawn)
-1.4%,Cc1cc(C(=O)N2CCCC(c3nn(C)c(=O)n3-c3ccccc3)C2)no1 (stereo not drawn)
-1.7%[70.6 µM],COc1cccc(CN2CCOC3CCN(C(=O)c4ccccc4)CC3C2=O)c1 (stereo not drawn)
-0.8%,COc1cc2c(cc1CN1C[C@H]3CC[C@@H]1CN(C(=O)c1cnccn1)C3)CCC2
4.8%,COCc1ccc2c(c1)c(OC(C)(C)C(=O)NCCN1CCOCC1)nn2Cc1cccnc1
-10.3%,CN1CCCN(C(=O)c2ccncc2)c2ccccc21
0.0%,COc1ccc(CCc2nc(C3CC(=O)N(c4ccc(F)c(Cl)c4)C3)no2)cc1 (stereo not drawn)
2.6%,CC(C)N1C[C@@H](CO)[C@H](c2nc(-c3cccnc3)no2)C1
2.7%,CCC(=O)N1CCC(c2noc(CO)n2)C1 (stereo not drawn)
-2.5%,CNC(=O)N1CCCN(S(C)(=O)=O)C(c2ccccc2)CC(=O)NCC1 (stereo not drawn)
3.5%,CCCc1nc(C(=O)N2CCC3(CCc4ccccc43)CC2)cs1
3.2%,CN1CCN(Cc2nc(C3(O)CCN(Cc4ccc(C(F)(F)F)cc4)CC3)cs2)CC1
4.2%,O=C1NCCCCCCN(Cc2ccncc2)[C@@H]2CN(C(=O)c3ccncc3)CC[C@@H]12
1.1%,CCn1c(C)ccc(C(=O)N[C@@H]2COCC[C@H]2Oc2ccccn2)c1=O
u,COc1ccc(-c2noc(CC3CCN(C(=O)C4CC4)CC3)n2)cc1
4.9%,COCCCN1CC2(CCC1=O)CCN(C(=O)C1CCCCn3nnnc31)CC2 (stereo not drawn)
-2.6%[70.6 µM],CC(C)N1C[C@@H]2OCC(=O)N(Cc3ccccc3)[C@@H]2C1
-2.7%,c1ccc([C@@H]2CN(C3CCOCC3)C[C@H]2COc2cccnc2)nc1
-9.7%,CCC(=O)N1CCc2c(C(=O)NCc3cccc(OC)c3OC)cccc21
1.12µM*,Cc1nn2c(c1-c1ccccc1C(N)=O)N(CCCc1ccccc1)CCC2
-13.9%,CN(C)CCNC(=O)c1cccnc1N1CC2CC(C1)[C@H]1CCCC(=O)N1C2 (stereo partly drawn)
-2.0%,Cc1ccc(NC(=O)Cn2cccc2-c2nc(-c3ccc4c(c3)OCO4)no2)cc1C
7.7%,CSCCC(=O)N1CCC2(CCN(Cc3ccccn3)CC2)C(CO)C1 (stereo not drawn)
6.6%[70.6 µM],Cc1cc(C(=O)NCC2(COc3ccc(S(C)(=O)=O)cc3)C[C@@H](O)[C@@H](O)C2)no1 (stereo partly drawn)
-13.7%,COCC1CN(C2CCC2)CC12CCN(Cc1cnn(C(C)C)c1)CC2 (stereo not drawn)
-6.3%,Cc1ccc(-c2cc3c(=O)n(CCNC(=O)c4nn(C)c5ccccc45)ccn3n2)cc1C
3.1%,COCC1CN(S(=O)(=O)c2ccc(F)cc2)CC12CCNCC2 (stereo not drawn)
3.6%[70.6 µM],COc1ccc(-c2cnc3[nH]cc(CC(=O)NCc4cccnc4)c3c2)cn1
-2.6%,O=C(Cc1cccc(F)c1)N1CCC2(CC1)N(c1ccccc1)C(=O)CS2(=O)=O
-20.4%,CSc1ccc(-c2ccc3c(c2)C(=O)N2CCN(C(=O)CC(C)(C)C)C[C@@H]2C(=O)N3)cc1
10.8%,O=C(c1nccc2ccccc12)N1CCc2nc3cc[nH]n3c(=O)c2C1
3.6%[70.6 µM],CN1[C@@H](CCC(=O)N2CCC(O)CC2)CNC(=O)[C@@H]2[C@H]1CCN2Cc1ccc(F)cc1
-1.5%,O=C([C@@H]1C[C@H](F)CN1S(=O)(=O)c1ccc(F)cc1F)N1CCCCC1
-3.8%,COC1CCOC2(CCN(S(=O)(=O)c3cn(C)cn3)CC2)C1 (stereo not drawn)
-7.9%,O=C(CCCn1cnc2ccccc2c1=O)N1CCCC2(CCNCC2)CC1
3.2%,Cc1nc(-c2cccc(Cl)c2)n(Cc2ccc(C#N)cc2)c(=O)c1CCO

A different layout for some results above.
smiles | NPR1 antag
CN(C)CCNC(=O)c1cccnc1N1CC2CC(C1)[C@H]1CCCC(=O)N1C2 (stereo partly drawn) | -13.9%
Cc1ccc(NC(=O)Cn2cccc2-c2nc(-c3ccc4c(c3)OCO4)no2)cc1C | -2.0%
CSCCC(=O)N1CCC2(CCN(Cc3ccccn3)CC2)C(CO)C1 (stereo not drawn) | 7.7%
Cc1cc(C(=O)NCC2(COc3ccc(S(C)(=O)=O)cc3)C[C@@H](O)[C@@H](O)C2)no1 (stereo partly drawn) | 6.6%[70.6 µM]
COCC1CN(C2CCC2)CC12CCN(Cc1cnn(C(C)C)c1)CC2 (stereo not drawn) | -13.7%

(next part)
NPR1 antag,SMILES
-7.3%,CNC(=O)[C@@H]1C[C@H](Oc2cccnc2)CN1C(=O)CCCc1ccccc1
-3.7%[70.6 µM],COc1ccccc1N1CCN(CC[C@H]2CN(C(=O)C3CC3)CC[C@H]2CC(=O)O)CC1
5.6%,CCNC(=O)N1CCCC1C(=O)Nc1ccccc1-c1ccc(OC)cc1 (stereo not drawn)
1.1%,Clc1ccccc1C1(c2ccnc(NCCc3ccccn3)n2)CCNCC1
7.3%,O=C(c1n[nH]c2c1CCCC2)N1CCc2nc3cc[nH]n3c(=O)c2C1
-4.9%,Cc1nn(C(=O)CCC(=O)N2CCCC(c3nc(C4CCOCC4)no3)C2)c2ccccc12 (stereo not drawn)
-0.5%,COc1ccc(C(=O)NC2CCc3nn(CC4CC4)c(=O)n3CC2)c(C)c1 (stereo not drawn)
-18.0%,COc1ccc(Cl)cc1NC(=O)Cn1ccn2nc(-c3ccccc3)c(CO)c2c1=O
6.1%,COc1ccc(NC(=O)CC2CCCCN(C)C2=O)c(OC)c1 (stereo not drawn)
u,CCOCC1(C)COc2ccc(C(=O)Nc3ccc(F)c(Cl)c3)cc2N1 (stereo not drawn)
6.0%,C[C@@H]1CN(C(=O)CN2CCN(c3ncccn3)CC2)C[C@@]1(O)C1CCC1
-1.0%,O=C(NCc1ccccc1)N1CCC(Oc2ncccc2C(=O)N2CCCCC2)C1 (stereo not drawn)
-16.2%,O=C(NC1CCN(c2cc(-c3cccs3)[nH]n2)CC1)c1ccccc1Cl
-3.1%,O=C(NC1CCN(c2cc(-c3cccs3)[nH]n2)C1)c1cc(Cl)ccc1F (stereo not drawn)
-8.5%,O=C(NC1CCCCC1)c1ccc2c(c1)N(C(=O)c1ccc(F)cc1)CC2
1.0%[70.6 µM],O=C(c1ccccc1)N1CCn2c(nn(-c3ccncc3)c2=O)C1
-6.8%[70.6 µM],O=C1COc2ccc(-c3ccncc3)nc2CN1Cc1ccc(C(F)(F)F)cc1
-2.4%,Cc1noc(C)c1S(=O)(=O)N1CCCC2(C1)Nc1cccnc1NC2=NC1CCCC1 (stereo not drawn)
4.8%,CN1C(=O)CCC2(CNC(=O)C3CCC3)CCC=C12 (stereo not drawn)
-0.3%,COc1ccc(NC(=O)Cn2c(C)cc3nc4n(c(=O)c32)CCC4)cc1OC
-1.4%,CCOc1ccc(NC(=O)Cn2ccn3nc(-c4ccccc4)c(CO)c3c2=O)cc1
1.7%,CN1C[C@H](NC(=O)NC2CCCC2)CCC[C@@H](C(=O)NCc2cc(F)cc(F)c2)CC1=O
-4.0%,COc1cc(Cl)ccc1OCc1nc2c(n1Cc1ccccc1)C(=O)N(Cc1ccccc1C#N)CCN2
-3.9%[70.6 µM],CN(C)Cc1cc(C[C@@H]2C[C@H](N(Cc3ccco3)Cc3ccco3)C2(C)C)no1
-4.1%[70.6 µM],CN1CCC(N[C@H]2C[C@@H](Cc3cc(-c4ccccc4)on3)C2(C)C)CC1
2.6%[70.6 µM],C[C@@H](c1ccccc1)N1C(=O)[C@@H]2CN(C(=O)c3ccco3)CCN2C1=O
8.91µM*,O=C1c2cnc(-c3cc4ccccc4o3)nc2OCCN1Cc1ccccc1
9.6%[70.6 µM],O=C(NCc1ccc(Cl)cc1)c1ccn2nccc2c1
5.2%,CNS(=O)(=O)c1ccc(CN2CCC3(CCNCC3)C2)cc1
-21.8%,Cc1c(-c2ccc(F)cc2)[nH]c2ccc(CNC(=O)CN3CCOC3=O)cc12
-9.6%,O=C(COc1ccccc1)c1ccc2c(c1)N(CCCC(=O)N1CCCC1)C(=O)CO2
-3.1%,Cc1ccc(NC(=O)N2CCCC(Cn3cnc4cccnc43)C2)cc1 (stereo not drawn)
2.8%,CO[C@H]1[C@H](NC(=O)c2cc(C)nn2C)c2ccccc2C12CCNCC2
-1.0%[70.6 µM],CCS(=O)(=O)N1CCOC[C@H](Oc2ccc(C(F)(F)F)cn2)C1
1.2%,CC(C)CC(=O)N1CCCN(S(C)(=O)=O)c2ccccc21
4.9%,COC(C(=O)Nc1ccnn1C1CCN(C(=O)C2CCC2)CC1)c1ccccc1 (stereo not drawn)
-2.8%[70.6 µM],CC(C)CNc1ccc2nnc(-c3ccc(F)cn3)n2n1
1.2%,CC(C)(CC(=O)O)CC(=O)N1Cc2[nH]cnc2C[C@H]1c1nc(-c2ccc3c(c2)OCO3)no1
-9.9%[70.6 µM],O=C(Nc1cccc(Cl)c1)C1=NO[C@@H]2CN(CCc3ccccc3)C[C@H]12
-10.5%,CCn1cc(S(=O)(=O)N2CCC(c3ncc(C)n3Cc3ccccc3)C2)cn1 (stereo not drawn)

Three entries already listed, arranged by the number in NPR1 antag, low to high.
NPR1 antag,SMILES
-21.8%,Cc1c(-c2ccc(F)cc2)[nH]c2ccc(CNC(=O)CN3CCOC3=O)cc12
4.9%,COC(C(=O)Nc1ccnn1C1CCN(C(=O)C2CCC2)CC1)c1ccccc1 (stereo not drawn)
5.2%,CNS(=O)(=O)c1ccc(CN2CCC3(CCNCC3)C2)cc1

Other entries.
NPR1 antag,SMILES
-0.6%,Cc1ccc(C2Cn3nnc(-c4noc(C5CCCCC5)n4)c3CO2)cc1 (stereo not drawn)
-2.1%,COCCn1nc2n(c1=O)CCN(S(=O)(=O)c1ccc3c(c1)CCC3)CC2
0.0%,Cc1ccc(C(=O)N2CCCC(n3cc(-c4nc(-c5ccccc5)no4)nn3)C2)cc1 (stereo not drawn)
-0.6%,COc1ccc(C(C)NC(=O)CN2C(=O)NC3(CCS(=O)(=O)CC3)C2=O)cc1 (stereo not drawn)
0.0%,COc1ccc(CN2CCc3n[nH]c(=O)n3CC2)c(Cl)c1OC
-10.5%,COCCN1C(=O)CC[C@]2(C(=O)NC3CCCCC3)CCCC[C@@H]12
u,F[C@@H]1CN(Cc2ccc(C(F)(F)F)cc2)C[C@@H]1OCc1nc2ncccc2[nH]1
